# Screening results (PubChem)
# gsp antag = qHTS for Antagonists of gsp, the Etiologic Mutation Responsible for Fibrous Dysplasia/McCune-Albright Syndrome: qHTS | gsp-mutant cells, cAMP HTRF, 30 min; control for the full effect not named in the record | Potency, µM (titrated, usually from 76.9 µM), for the others: at the highest dose activity change, negative = inhibition, actives largely listed as inhibitors | 340,000 tested, 0.4% active | AID 624288, 2012; active = falling curve of any shape with a large fitted effect; inconclusive = falling curve, mostly with a smaller effect; inactive = flat or rising curve; cell line not stated here;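 further: intracellular cAMP measured with PDE inhibitor Ro 20-1724 present during compound exposure; potency means the concentration at half of the fitted maximal effect; on the % scale 0 is the no-effect control and ±100 the full control effect; nearly all actives have a fitted effect of over 65% in size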
#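 Measurement of cellular cAMP by homogeneous time-resolved fluorescence following a 30 min compound exposure at 37C. The PDE inhibitor […] was present throughout; the assay buffer was DPBS with 0.05% BSA and 0.005% Tween 20.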
# gsp ag = qHTS for Agonist of gsp, the Etiologic Mutation Responsible for Fibrous Dysplasia/McCune-Albright Syndrome: qHTS; gsp mutant cells, cAMP HTRF, 30 min; control for the full effect not named in the record; Potency, µM (titrated, usually from 76.9 µM), for inactives: at the highest dose activation (cAMP increase), actives largely listed as activators; 340,000 tested, 0.13% active; active = well fitted activation curve with a large enough effect; inconclusive = small, poorly fitted or top-dose-only effect, or another doubt; inactive = no such curve, though single readings can be large or run the other way; cell line not stated here;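 further: phosphodiesterase inhibitor Ro 20-1724 added with compounds to block cAMP breakdown; potency means the concentration at half of the fitted maximal effect; nearly all actives have a fitted effect of over 60% in size; about a fifth of the inactives were tested at one dose only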
#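 Cells stably selected in G418 were plated at 2000/well, grown 16-24 hr, then given compounds in DMSO with the PDE inhibitor […] (300 uM solution added) for 30 min at 37C; cAMP was read by HTRF.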
# Menin-MLL FL inh = qHTS Assay for Inhibitors Targeting the Menin-MLL Interaction in MLL Related Leukemias: Competition With Fluorescein Labeled MLL-derived Peptide. Fluorescence polarization, fluorescein-MLL peptide displacement from menin. FP activity change, % at 61.4 µM. 290,000 tested, under 10 active; inconclusive = falling polarisation curve, or a change in total fluorescence; inactive = total fluorescence flat and polarisation flat or rising; no compound was filed as active; the % refers to the polarisation; negative = inhibition;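 further: % of control where 0% means no effect; inhibitors lower the polarisation; unlabelled MLL peptide was the positive control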
# D2 potentiator = Beta-Arrestin HTS for Positive Allosteric Modulators of the Human D2 Dopamine Receptor: Potentiators; D(2) dopamine receptor (Homo sapiens), P14416; DiscoveRx D2 beta-arrestin cells, luminescence, 90 min; 100% = 57 uM dopamine signal; potentiation, % (test concentration not listed); 360,000 tested, 0.23% active; AID 624464, 2012; active = potentiation of 50% or more; inconclusive = 30% to 50%; inactive = 30% or less;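 further: compound concentration not given in the record; tested on top of an EC20 dose of dopamine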
#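 PathHunter D2 cells, attached overnight at 37 deg C, received compound in DMSO plus dopamine at EC20 (50 nM final) for 90 min at 37 deg C. Beta-arrestin recruitment was read as luminescence after 1 h with detection reagent at ambient temperature.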
# TRPV1 potentiator = HTS Assay for Compounds that Act as Potentiators of the Vanilloid Receptor 1. potentiation, % at 8.33 µM. AID 540277, 2011. TRPV1-expressing cells, Fluo-8 calcium influx, capsaicin EC20 potentiation; host cell line not named in the record; control for the full effect not named in the record. 320,000 tested, 0.02% active; active means potentiation above 80%; inconclusive means 30% to 80%; inactive means below 30%; further: 0% is about no effect
# Target sequence (Q8NER1 whole entry, looked up): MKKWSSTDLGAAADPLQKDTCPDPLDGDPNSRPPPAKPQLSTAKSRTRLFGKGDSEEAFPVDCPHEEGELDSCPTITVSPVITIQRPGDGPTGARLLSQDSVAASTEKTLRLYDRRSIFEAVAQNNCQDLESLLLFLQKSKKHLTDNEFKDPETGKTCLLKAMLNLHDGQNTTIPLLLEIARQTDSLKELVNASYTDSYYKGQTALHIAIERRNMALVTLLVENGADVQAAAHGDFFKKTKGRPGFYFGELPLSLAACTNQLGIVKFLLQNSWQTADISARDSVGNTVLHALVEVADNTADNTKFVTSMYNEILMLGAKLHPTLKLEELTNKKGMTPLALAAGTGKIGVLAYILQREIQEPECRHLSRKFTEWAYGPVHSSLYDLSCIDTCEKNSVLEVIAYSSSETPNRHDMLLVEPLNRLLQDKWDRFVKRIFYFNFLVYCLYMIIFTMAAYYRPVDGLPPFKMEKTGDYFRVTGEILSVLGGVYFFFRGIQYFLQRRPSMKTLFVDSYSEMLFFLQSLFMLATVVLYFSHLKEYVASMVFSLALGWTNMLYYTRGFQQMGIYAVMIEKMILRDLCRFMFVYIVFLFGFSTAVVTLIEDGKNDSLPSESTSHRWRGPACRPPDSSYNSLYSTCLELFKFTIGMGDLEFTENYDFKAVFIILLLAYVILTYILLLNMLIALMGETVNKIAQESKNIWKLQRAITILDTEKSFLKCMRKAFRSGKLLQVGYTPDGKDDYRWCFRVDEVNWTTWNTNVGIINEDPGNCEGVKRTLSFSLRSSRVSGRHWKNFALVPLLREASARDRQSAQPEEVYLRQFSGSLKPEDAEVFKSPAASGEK
#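 Fluo-8 calcium influx in TRPV1-expressing cells, kinetic read (ex 480/em 520 nm). Compound added and read 3 min for agonist activity, followed by capsaicin at EC20 final and 2 min further read for enhancement.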
# Sfp PPTase inh = qHTS Assay for Inhibitors of Bacillus subtilis Sfp phosphopantetheinyl transferase (PPTase); AID 1490, 2009; Biochemical Sfp PPTase activity, qHTS; 310,000 tested, 3.5% active; Potency, µM, without a hit: max response, negative = inhibition, usual class: inhibitors; 4'-phosphopantetheinyl transferase ffp (Bacillus subtilis), Q9F4F7; active means well fitted inhibition curve with a large enough effect; inconclusive means small, poorly fitted or top-dose-only effect, or another doubt; inactive means no such curve, though single readings can be large or run the other way;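 further: the enzyme is Sfp with the accession as filed and its product quenches rhodamine fluorescence; potency means the concentration at half of the fitted maximal effect; 0% = enzyme reaction without inhibitor and -100% = no enzyme wells; top concentration of the series not given in the record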
#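 After 15 min at room temperature with compound, 15 nM Sfp received 5 uM rhodamine-CoA plus 12.5 uM BHQ-2-ybbR (50 mM Hepes pH 7.6, 10 mM MgCl2). Rate came from the fluorescence difference over 30 min, ex 525/em 598 nm.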
# ClpP mod = qHTS Assay for Activators of ClpP; ATP-dependent Clp protease proteolytic subunit (Bacillus subtilis (strain 168)), P80244; purified B. subtilis ClpP, FRET peptide cleavage, 20 min; Potency, µM (top dose mostly 57.5 µM), inactives show top-dose activity change, negative = active; 340,000 tested, 1.9% active; AID 651965, 2013; active = well fitted falling curve with a large enough effect; inconclusive = small, poorly fitted or top-dose-only effect; inactive = no such curve, though single readings can be large or run the other way; further: potency means the concentration at half of the fitted maximal effect; the source files actives as falling curves though it sought activators and does not explain the sign; nearly all actives have a fitted effect of over 65% in size; many hits overshoot -100%
# Target sequence (P80244 whole entry, looked up): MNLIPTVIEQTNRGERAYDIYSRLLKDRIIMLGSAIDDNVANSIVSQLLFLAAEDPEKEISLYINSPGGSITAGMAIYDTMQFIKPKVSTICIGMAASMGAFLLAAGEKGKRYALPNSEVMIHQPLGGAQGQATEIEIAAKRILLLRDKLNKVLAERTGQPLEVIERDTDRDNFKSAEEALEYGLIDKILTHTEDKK
#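 ClpP 10 microg/mL final, pH 8 Tris/KCl buffer with BSA, glycerol, Tween-20; compound pinned in; FRET-FV substrate; RT 20 min; Ex320/Em430; ΔFRET vs ADEP 5.8 microM, DMSO, no enzyme.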
# The depositor's hits bear a star; u = inconclusive; x = not tested or not shown; [ ] = another dose, or the depositor's remark.
no.	canonical_smiles	gsp antag	gsp ag	Menin-MLL FL inh	D2 potentiator
1	Cc1cc(C)n(Cc2ccc(C(=O)N/N=C/c3ccc(-c4ccc([N+](=O)[O-])cc4)o3)o2)n1	u	20%[15.4 µM]	10	9
2	CCOC1=C(C#N)CC2(CC1)c1ccccc1-c1ccccc12	u	10%	x	14
3	O=C(Cn1c(NCCO)nc2ccccc21)NCCc1ccc(F)cc1	6%	22%	-2.6	-5
4	Cc1cc(C)nc(/N=C(\N)Nc2cccc(OCc3ccccc3)c2)n1	4%	6%	2.4	-28
5	Cc1ccc(C(=O)NCC(c2ccco2)N2CCc3ccccc3C2)cc1 (stereo unspecified)	-9%	-18%	x	-14
6	Cc1nn(-c2ccccc2)c2nc3c(cc12)C(=O)CCC3	-2%	7%	2.6	12
7	CC(C)N(C(=S)Nc1cccc(S(=O)(=O)N(C)C)c1)c1ccccc1	10%	-31%[inhibitor]	-0.1	-26
8	O=C(CSc1nnc(CNC(=O)c2cccc(C(F)(F)F)c2)o1)NCC1CCCO1 (stereo unspecified)	9%	-1%[15.4 µM]	x	-7
9	COc1ccccc1NC(=O)c1ccc(C)c(S(=O)(=O)N2CCCCC2)c1	-26%	-18%[15.4 µM]	x	-9
10	FC(F)(F)c1cccnc1Oc1ccc(C2=NCCS2)cc1	-10%	2%[15.4 µM]	0.6	-6
11	Cc1ccccc1NC(=O)COC(=O)c1ccc(S(=O)(=O)N2CCCC2)cc1	14%	u	x	-1
12	O=C(N/N=C/c1cn[nH]c1-c1ccc(Cl)cc1)c1ccc([N+](=O)[O-])cc1	0%	-2%[15.4 µM]	0.8	-9
13	Oc1ccc(C=NCCc2ccccc2)cc1	-11%	u	5.3	2
14	COC(=O)c1ccccc1NC(=O)Cn1cc(Br)cn1	-1%	-70%[inhibitor]	3.6	-14
15	COc1ccc(C2C3=C(CCCC3=O)N(CC(=O)O)C3=C2C(=O)CCC3)cc1	9%	-4%	-5.9	-27

no.	TRPV1 potentiator	Sfp PPTase inh	ClpP mod
1	11	u	0.6%
2	x	x	x
3	9	-8%	-3.1%
4	-5	-4%	0.0%
5	-13	x	-1.6%
6	-6	-1%	-22%
7	9	u	-4.7%
8	3	22%	0.7%
9	-3	3%	0.6%
10	x	0%	x
11	12	x	-1.1%
12	-4	22%	x
13	18	9%	-1.3%
14	8	3%	-7.1%
15	-3	19%	4.6%

# (list continues)
no.	canonical_smiles	gsp antag	gsp ag	Menin-MLL FL inh	D2 potentiator
16	COc1ccc(-c2cc3ccccc3c(=O)o2)cc1	x	x	-6.0	x
17	COc1ccc(N2C(=O)CC(NNc3ncc(Cl)cc3Cl)C2=O)cc1 (stereo unspecified)	7%	-28%[15.4 µM]	0.7	-17
18	Cc1cccnc1N(C(=O)Nc1cccc(Cl)c1)C1=NCC(C)(C)S1	10%	29%	0.0	-5
19	CCC12CC3CC(C1)CC(C(=O)NNC(N)=O)(C3)C2	3%	-4%	-0.5	-1
20	Cc1c(Cl)c(C(F)(F)F)nn1CC(=O)NCc1ccccc1	1%	-34%[inhibitor]	1.5	-7
21	O=c1cc(N2CCC3(CC2)OCCO3)[nH]c(=O)n1-c1ccc(Br)cc1	-12%	-28%	1.5	-6
22	O=C(Cn1c(=O)oc2ccccc21)N1CCCC1	7%	-4%	0.9	-8
23	CC1CCc2nc3ccc(S(=O)(=O)N4CCC(C(=O)NC(C)c5ccccc5)CC4)cc3c(C(=O)O)c2C1 (stereo unspecified)	-14%	6%	-1.7	-1
24	CN(/N=C/c1ccccc1O)C(=S)c1ccccc1	-11%	-6%[15.4 µM]	0.7	-9
25	CN(C)C(=S)SCC(=O)Nc1cccc(C(F)(F)F)c1	-10%	22%	4.1	-2
26	O=C(CSc1ccccn1)Nc1ccc(N2CCOCC2)cc1	-20%	1%[15.4 µM]	-5.6	0
27	O=C1NC(=O)/C(=C\c2ccc(Cl)cc2Cl)N1	3%	-10%	x	-1
28	CCC(Oc1ccccc1)C(=O)Nc1ccccc1N1CCCCC1 (stereo unspecified)	2%	-14%	-1.6	13
29	O=C(CN(Cc1ccco1)C(=O)CCC(=O)Nc1nccs1)NCc1ccccc1	4%[15.4 µM]	0%	1.5	-24
30	CC(C)N1CC2(CC(c3ccccc3C(F)(F)F)=NO2)CN1C(=O)c1ccco1 (stereo unspecified)	x	3%	x	0

no.	TRPV1 potentiator	Sfp PPTase inh	ClpP mod
16	x	u	4.7%
17	2	50µM*	x
18	-10	-13%	2.2%
19	10	9%	x
20	-4	11%	0.3%
21	-6	-1%	-0.3%
22	-3	10%	-3.3%
23	10	7%	1.2%
24	11	u	1.1%
25	-14	11%	-1.2%
26	-7	0%	1.5%
27	x	x	-25%
28	-19	-13%	-0.6%
29	1	19%	-4.5%
30	x	x	-2.4%

# Remaining list, next part:
no.	canonical_smiles	gsp antag	gsp ag	Menin-MLL FL inh	D2 potentiator
31	CCC(=O)Nc1ccc(Cl)c(NC(=O)c2c(OC)cccc2OC)c1	18%	-5%	0.3	-2
32	Cc1ccc(NC(=O)COC(=O)CC2CCCC2)cc1Cl	x	x	7.3	x
33	COc1cccc(/C=N/NC(=O)CNC(=O)c2ccc3c(c2)OCCO3)c1O	-2%	-7%	-5.1	-11
34	CC(=O)N1CCOc2ccc(S(=O)(=O)NC(C)c3ccccc3)cc21 (stereo unspecified)	-1%	0%	2.1	-26
35	CCOc1ccc(CCNC(=O)c2cc(-c3ccccc3)c(N3CCOCC3)s2)cc1OCC	u	20%	1.6	1
36	COc1cc(/C=C2\SC(=S)N(C(C(=O)O)c3ccccc3)C2=O)ccc1O (stereo unspecified)	11%	27%	u	-20
37	CC1CCN(C(=O)COC(=O)c2cc(Cl)c3c(c2)OCO3)CC1	0%	-36%[inhibitor]	x	-9
38	C=CC(=O)NCC1OCCc2ccccc21 (stereo unspecified)	-1%	-31%[15.4 µM]	-2.2	-4
39	COc1ccc(OCC(=O)N2CCN(C(=O)c3ccc([N+](=O)[O-])cc3)CC2)cc1	-2%	-7%[15.4 µM]	-5.5	0
40	Cc1cccc(CC(=O)NCCn2c(C)cc3ccccc32)c1	0%	-176%[inhibitor]	u	-5
41	CN1C(=O)/C(=C/c2ccccc2OCc2ccccc2)NC1=S	-5%	8%	0.0	-19
42	CCCCCC(=O)Nc1nc(C)c(-c2csc(Nc3ccccc3OCC)n2)s1	7%	1%	4.3	-9
43	COc1cc(/C=N/NC(=O)CSc2ccccn2)ccc1O	5%	11%	-2.0	-11
44	C=CCc1cccc2ccc(=O)oc12	12%	-7%	3.7	-18
45	Cc1cc(Cl)ccc1NC(=O)CSc1nnc(-c2ccncc2)n1Cc1ccco1	-7%	-35%	1.4	-13

no.	TRPV1 potentiator	Sfp PPTase inh	ClpP mod
31	1	2%	x
32	-7	8%	x
33	13	8%	-3.0%
34	-15	15%	-2.0%
35	17	12%	u
36	u	u	1.7%
37	-8	x	-2.2%
38	-2	12%	x
39	-23	-9%	x
40	-23	-5%	-0.8%
41	-8	10%	-0.5%
42	-3	u	-5.6%
43	u	6%	-5.8%
44	-2	1%	2.2%
45	10	u	-1.8%

# Five entries from above in another layout:
item | SMILES | gsp antag | gsp ag | Menin-MLL FL inh | D2 potentiator | TRPV1 potentiator | Sfp PPTase inh | ClpP mod
22 | O=C(Cn1c(=O)oc2ccccc21)N1CCCC1 | 7% | -4% | 0.9 | -8 | -3 | 10% | -3.3%
23 | CC1CCc2nc3ccc(S(=O)(=O)N4CCC(C(=O)NC(C)c5ccccc5)CC4)cc3c(C(=O)O)c2C1 (stereo unspecified) | -14% | 6% | -1.7 | -1 | 10 | 7% | 1.2%
24 | CN(/N=C/c1ccccc1O)C(=S)c1ccccc1 | -11% | -6%[15.4 µM] | 0.7 | -9 | 11 | u | 1.1%
25 | CN(C)C(=S)SCC(=O)Nc1cccc(C(F)(F)F)c1 | -10% | 22% | 4.1 | -2 | -14 | 11% | -1.2%
26 | O=C(CSc1ccccn1)Nc1ccc(N2CCOCC2)cc1 | -20% | 1%[15.4 µM] | -5.6 | 0 | -7 | 0% | 1.5%

# The results go on.
no.	canonical_smiles	gsp antag	gsp ag	Menin-MLL FL inh	D2 potentiator
46	Cc1ccc(COc2ccsc2C(=O)O)cc1	-5%	-12%[15.4 µM]	0.6	1
47	COc1cc(/C=N/NC(=O)c2cc(C)oc2C)cc(OC)c1OC	-13%	-4%	0.5	-6
48	CCOC(=O)c1[nH]c2ccc(OCC)cc2c1NC(=O)CN1CCC2(CC1)OCCO2	-4%	u	0.8	15
49	COc1ccccc1CNC(=O)CN1C(=O)NC2(CCCc3ccccc32)C1=O (stereo unspecified)	-3%	-6%	x	-4
50	CN1CCN(NC(=O)c2ccc(Br)s2)CC1	-5%	-21%	2.3	-20
51	O=c1cc(O)c2c(=O)[nH]c(=O)n(-c3ccccc3)c2[nH]1	12%	-54%[inhibitor]	3.1	1
52	O=C(COC(=O)c1ccccn1)Nc1nccs1	9%	-24%	-6.6	-2
53	COc1ccc(OCC(O)COc2ccc(C(=O)O)cc2)cc1 (stereo unspecified)	1%	-7%	0.9	14

no.	TRPV1 potentiator	Sfp PPTase inh	ClpP mod
46	6	26%	x
47	5	7%	-10%
48	-15	u	25µM*
49	-1	x	-0.1%
50	3	15%	-1.3%
51	-4	10%	1.1%
52	7	9%	2.3%
53	-7	12%	-1.7%

# Compounds were not picked by outcome; 5.1% or so of the library scored in one or more.
